Vaccinia Venus: qHTS for Stage-Specific Inhibitors of Vaccinia Orthopoxvirus: Venus Reporter Primary qHTS; Vaccinia virus Venus reporter expression, fluorescence; 330,000 compounds, 0.46% hits; Potency, µM (titrated, usually from 36.5 µM), inactives show top-dose activity change, negative = inhibition, usual class: inhibitors; AID 720580, 2013; active means well fitted inhibition curve with a large enough effect; inconclusive means small, poorly fitted or top-dose-only effect; inactive means no such curve, though single readings can be large or run the other way; tested in A549 cells; also: nearly all actives have a fitted effect of over 30% in size; inactives centre near -10
VACV mCherry inh: qHTS for Stage-Specific Inhibitors of Vaccinia Orthopoxvirus: mCherry Reporter Primary qHTS. Vaccinia virus mCherry reporter infection, fluorescence; about a quarter of the inactives have no number. Potency, µM (series often up to 36.5 µM), for the others: at the top dose activity change, negative = inhibition, hits mostly inhibitors. 310,000 compounds, 0.63% hits. AID 720579, 2013; active = well fitted inhibition curve with a large enough effect; inconclusive = small, poorly fitted or top-dose-only effect; inactive = no such curve, though single readings can be large or run the other way; tested in A549 cells; also: nearly all actives have a fitted effect of over 35% in size; inactives centre near -10
Active calls of the source: *; i = inactive; ? = inconclusive; · = not tested or not shown; & = joins results of further samples; [ ] = dose if it differs, or a comment. % is scaled to controls: 0 for no effect and ±100 for the full control effect; potency is read from the fitted curve at half-maximal effect.

| structure | Vaccinia Venus | VACV mCherry inh |
| --- | --- | --- |
| CCOC(=O)c1cn[nH]c1N | -14% | -13% |
| CCOC(=O)c1c(C)[nH]c(C)c1S(=O)(=O)NCC(=O)NCc1cccc(Br)c1 | -16% | -23% |
| Oc1ccc(C=Nc2cccc3ccccc23)c(O)c1 | -3% | ? |
| COc1ccc(Cl)c(Cn2c(NCCN)nc3c2c(=O)n(C)c(=O)n3C)c1 | -15% | -14% |
| Cc1cccc(C)c1NC(=S)N(CCCN1CCCCC1)Cc1ccco1 | -2% | -1% |
| CCOC(=O)CNC(=O)c1ccc2[nH]c3ccccc3c2c1 | -15% | i |
| Cc1ccc(Cl)cc1NC(=O)CN1CCN(S(=O)(=O)N2CCC(C)CC2)CC1 | -1% | i |
| COc1cc(/C=C(\C#N)c2ccccn2)ccc1OCC(=O)Nc1ccc(Br)cc1 | -13% | i |
| CC(=O)Nc1ccc(Nc2ncnc3c2c(-c2ccccc2)cn3-c2ccccc2)cc1 | -30% | ? |
| COC(=O)C(C)Sc1ccc2nnc(-c3ccccc3)n2n1 (stereo not given) | -7% | i |
| O=C(O)c1nccnc1C(=O)Nc1ccccc1-c1ccccc1 | -1% | -15% |
| COc1ccc(S(=O)(=O)N2CCCCCC2)cc1C(=O)N(C)Cc1ccccc1F | -23% | -4% |
| O=C1c2ccccc2C(=O)N1CCCCN(C(=O)c1ccco1)c1ccc(Cl)cc1 | -16% | · |
| COc1ccc(C)cc1NC(=O)c1cccc(C(=O)Nc2cc(C)ccc2OC)n1 | -2% | -11% |
| O=C(NC1CCCCC1)C(c1ccccc1)N1CCc2ccccc21 (stereo not given) | -11% | i |

Compound profiles, as listed above. Order of values: Vaccinia Venus	VACV mCherry inh
Results for `O=C(NC1CCCCC1)C(c1ccccc1)N1CCc2ccccc21` (stereo not given) : -11%	i
Results for `Cc1cccc(C)c1NC(=S)N(CCCN1CCCCC1)Cc1ccco1` : -2%	-1%

Remaining list, next part:
| structure | Vaccinia Venus | VACV mCherry inh |
| --- | --- | --- |
| CCCc1cc2c(-c3ccccc3)cc(=O)oc2cc1OCc1ccc(C(=O)O)o1 | -7% | -1% |
| CCOc1ccc(OCCC(=O)NNC(=O)c2cc(C)oc2C)cc1 | -2% | i |
| CN(CC(O)COc1ccc(OCC(O)CN(C)C2CCCCC2)cc1)C1CCCCC1 (stereo not given) | -23% | i |
| O=C(CC1CCCC1)N1CCN(S(=O)(=O)c2ccc(F)cc2)CC1 | -4% | -4% |
| O=C(Cn1nc(N2CCN(c3ccccc3)CC2)ccc1=O)NCc1cccc(Cl)c1 | -9% | -13% |
| CCCCn1nnnc1C1(C)CCC(=O)N1CCOC (stereo not given) | ? | -14% |
| CN1C(=O)N(C)C(=O)C2(Cc3cc([N+](=O)[O-])ccc3N3CCN(C(=O)c4ccccc4)CC32)C1=O (stereo not given) | 0% | -2% |
| CCc1cccc(C)c1NC(=S)NCc1ccc2c(c1)cc(C)n2C | -1% | ? |
| O=C(NC1CCCC1)c1ccc(Br)c(S(=O)(=O)N2CCCCC2)c1 | -5% | -10% |
| CN(C(=O)c1cnn(-c2ncc3c(n2)-c2ccccc2CCC3)c1C1CC1)C1CCOC1 (stereo not given) | -17% | -18% |
| O=C1NCCCC1C(=O)Nc1cccc(C(F)(F)F)c1 (stereo not given) | -19% | · |
| O=S1(=O)CC(N2CCN(CC3CC3)CC2)CN1Cc1ccc(F)cc1 (stereo not given) | -4% | i |
| COCCCNC(=O)CCCCCNS(=O)(=O)c1ccc(Br)cc1 | -13% | i |
| CN(CC(=O)Nc1ccccc1Cl)C(=O)COC(=O)c1cccs1 | -7% | -15% |
| CC(C(=O)N1CCOCC1)N1C(=O)C2C3C=CC(C4CC34)C2C1=O (stereo not given) | -8% | -6% |
| O=C(CNS(=O)(=O)c1c(Cl)cccc1Cl)OCc1csc(-c2ccccc2)n1 | -6% | -15% |
| CC(C)(C)OC(=O)N[C@H](C(=O)OC(C)(C)C)c1ccccc1 | 1% | -6% |
| Cn1cc(S(=O)(=O)N2CCc3ccccc3C2)c(=O)n(C)c1=O | 2% | -14% |
| CCCCOc1ccccc1NC(=O)c1scc2c1OCCO2 | -24% | i |
| CCOc1c(Cl)cc(Cl)cc1CNCCNCCO | -6% | i |
| O=C(Cn1c(=O)n(Cc2ccccc2)c(=O)c2sc3ccccc3c21)NCc1ccccc1Cl | ? | ? |
| C/C(=N\Nc1ccccn1)c1ccc(N2CCOCC2)cc1 | -10% | ? |
| COc1cccc(-c2ccc3nccn3c2)c1 | -3% | 3% |
| COc1ccc(-c2nc3c(c(SCC(=O)N4CCCCC4)n2)Cc2cc(Cl)ccc2O3)cc1 | -2% | -13% |
| CCn1cc2nc(SCc3cccc(OC)c3)n(Cc3ccc(Cl)cc3)c(=O)c2n1 | -25% | -25% |
| O=C(Nc1ccccc1C(=O)NCC1CCCO1)c1ccco1 (stereo not given) | -4% | i |
| Cc1ccc(NS(=O)(=O)c2cccc3nsnc23)cc1C | -10% | -15% |
| CCn1c(=O)n(CC)c2cc(N3CCCCC3)c(NC(=O)Nc3cc(C)cc(C)c3)cc21 | -24% | -17% |
| Nc1nc(Cl)nc(N(c2ccccc2)c2ccccc2)n1 | -16% | i |
| O=C(O)c1ccc(NS(=O)(=O)c2ccc(C(=O)Nc3ccccc3)cc2)cc1 | -6% | -5% |
| CCOc1ccc(OCCC(=O)NNC(=O)c2ccncc2)cc1 | -11% | i |
| CC1=CC(=C(C#N)C#N)C=C(C)N1Cc1ccc(Cl)cc1 | -1% | -16% |
| O=C(COc1ccc2c(c1)oc(=O)c1ccccc12)NC(Cc1ccc(Cl)cc1)C(=O)O (stereo not given) | -1% | -1% |
| Cc1ccc(S(=O)(=O)c2cn(CC(=O)Nc3cccc(C)c3)c3cc4c(cc3c2=O)OCO4)cc1 | -4% | -8% |
| COc1ccc2c(c1)OC[C@H]1[C@H]2N2C(=O)c3cc(OC)ccc3NC(=O)[C@@]2(C)[C@H]1c1ccccc1 | -28% | -5% |
| Cc1ccc(/C=N/NC(=O)Cc2cccn2C)s1 | -4% | -7% |
| O=C(NNC(=S)Nc1ccc(Br)cc1Cl)c1ccncc1 | -9% | -7% |
| COc1ccc(CC(=O)NCC(c2ccc(N(C)C)cc2)N2CCOCC2)cc1 (stereo not given) | -2% | 6% |
| Nc1nc(N)nc(-c2cccc(Cl)c2)n1 | -14% | i |
| Cc1ccc(B(O)O)cc1 | 6% | -14% |
| COc1ccccc1OCCC(=O)OCC(=O)Nc1ccc(S(=O)(=O)N2CCOCC2)cc1 | 0% | -3% |
| CN1CCN(S(=O)(=O)c2ccc(NC(=S)NC(=O)C3CCC3)cc2)CC1 | -11% | -14% |
| CC(=O)c1cn(Cc2ccccc2)c(=O)n(Cc2ccc(F)cc2)c1=O | 1% | -10% |
| Cn1c(=O)[nH]c(=O)c2c1nc(N/N=C/c1cccnc1)n2Cc1ccc(Cl)cc1 | -21%[7.34 µM] | ? |
| CN(C)S(=O)(=O)c1cccc(COC(=O)c2cccnc2Cl)c1 | -2% | -11% |
| Cc1ccc(-c2noc(-c3ccc(N4CCCCC4C)c([N+](=O)[O-])c3)n2)cc1 (stereo not given) | -7% | -10% |
| COc1ccc(Cl)cc1C(=O)Nc1ccc(NC(=O)C(C)C)cc1 | -16% | -14% |
| COc1ccc(S(=O)(=O)N2CCC(Nc3ccccc3Cl)CC2)cc1 | -8% | i |
| CCCN1CCN(C(=O)c2noc3c2COc2ccc(C)cc2-3)CC1 | -3% | 14% |
| C=CCOc1ccccc1CN1CCC(n2nccc2NC(=O)C2CCOC2)CC1 (stereo not given) | -12% | -16% |
| Cc1cc[n+](-c2nc3ccccc3nc2[N-]S(=O)(=O)c2cccs2)cc1C | -15% | i |
| COc1ccc(C(=O)N2CCN(C(=O)Cc3ccccc3)CC2)cc1 | -5% | i |
| Cc1ccc(NC(=S)c2ccc3ccccc3n2)c(C)c1 | -16% | -10% |
| CC(=O)Nc1ccc(OCCOc2ccccc2C(C)=O)cc1 | -10% | -12% |
| O=C(COC(=O)c1ccc([N+](=O)[O-])o1)NC12CC3CC(CC(C3)C1)C2 | 3% | -22% |
| CCC(=O)N1CCc2cc(S(=O)(=O)NCCC(=O)Nc3ccc(OC)c(Cl)c3)ccc21 | -9%[7.34 µM] | -8%[7.34 µM] |
| O=C(N/N=C/c1ccco1)c1cc(-c2ccc3ccccc3c2)n[nH]1 | ? | -24% |
| CC(=O)c1ccc(N2CCN(C(=O)CCS(=O)(=O)c3ccc4c(c3)CCN4C(C)=O)CC2)cc1 | -18% | 0% |
| CC1=C(C(=O)OC(C)C)C(c2cccc(F)c2)N2C(=O)C(C)SC2=N1 (stereo not given) | -20% | · |
| CC(Sc1nn(-c2ccc(Cl)cc2)c(=S)s1)C(=O)NCC1CCCO1 (stereo not given) | -10% | -1% |

Next structures.
| structure | Vaccinia Venus | VACV mCherry inh |
| --- | --- | --- |
| CCOC(=O)CN1C(C(=O)c2ccccc2)=C(OC(=O)C(C)(C)C)c2ccccc2S1(=O)=O | -15% | -12% |
| O=C(Nc1ccc(Br)cn1)C1CCCN1S(=O)(=O)c1ccccc1 (stereo not given) | -20% | · |
| Cc1ccc2sc(C)cc(=O)c2c1 | -12% | -6% |
| COc1ccc(C(=O)C(C)C(C)=O)c(OCc2ccccc2)c1OC (stereo not given) | -15% | -1% |
| CC1(C(=O)Nc2cccc3ncccc23)CCN1C(=O)Cc1ccc(-c2ccccc2)cc1 (stereo not given) | -12% | i |
| COc1ccc(N(CC(=O)NCCc2ccccc2)C(=O)CCC(=O)Nc2ccccn2)cc1 | -8% | -4% |
| CC(=O)c1c(C)[nH]c(C(=O)COc2cc(C)ccc2C(C)C)c1C | ? | ? |
| COC(=O)c1ccccc1NC(=O)CSc1nccc(C)n1 | -28% | -18% |
| CN1CC[C@@H]2C(=O)N3CCc4ccc(Br)cc4[C@@H]3C[C@@H]21 | -15% | i |
| Cc1cc(-c2nnc(CCC(=O)N3CCN(Cc4cccc(F)c4)CC3)o2)c(C)o1 | -14% | -12% |
| O=[N+]([O-])c1cc(-c2cnc3ccccc3n2)ccc1Cl | -5% | -17% |
| Cn1nnnc1SCCCNCc1cc(Br)ccc1OCc1ccccc1 | -29% | -27% |
| CCOC(=O)c1ccc(Oc2cc(C)nc(Cl)n2)cc1 | -6% | i |
| CCCCn1c(N)c(N(CC)C(=O)c2ccccc2C)c(=O)[nH]c1=O | -5% | i |
| COc1ccc(CCNCC(O)COc2cccc(Br)c2)cc1OC (stereo not given) | -11% | ? |
| C/C(N)=C(/C#N)C(=O)COC(=O)CCSc1ccccc1Cl | -15% | i |
| CCOc1ccc(NC(=O)CN2CCN(CC(=O)Nc3ccc(F)cc3)CC2)cc1 | -8% | · |
| CC1(NC(=O)CCc2nc3sc4c(c3c(=O)[nH]2)CCCC4)CCS(=O)(=O)C1 (stereo not given) | 2% | -4% |
| CCCS(=O)(=O)Nc1ccc(N2CCCCC2)c(S(=O)(=O)Nc2ccccc2OC)c1 | -13% | -23% |
| NNC(=O)c1cccc(S(=O)(=O)Nc2cc(Cl)ccc2Cl)c1 | -10% | i |
| CC(NC(=O)c1ccc(OC2CCN(Cc3ccccn3)CC2)cc1)c1ccccc1 (stereo not given) | -3% | 1% |
| Cc1cc2nc(/C(C#N)=C/c3ccncc3)[nH]c2cc1C | -4% | ? |
| COCCN(C(=O)CNC(=O)c1ccco1)C(C(=O)NC1CCCCC1)c1cccnc1 (stereo not given) | -5% | -14% |
| S=C1NCCNC(=S)NCCOCCN1 | -7% | -10% |
| O=C(COC(=O)c1cccc(Br)c1)NC1CCCCCCC1 | -6% | i |
| CCCNC(=O)C1(C)CCCN(C(=O)c2oc3ccccc3c2C)C1 (stereo not given) | -2% | 4% |
| CC(C)C[C@H]1COc2cccc(N3CCC[C@H]3CO)c2S(=O)(=O)N1 | -1% | -5% |
| COc1ccc(CCC(=O)OCC(=O)Nc2ccccc2OC(F)F)cc1OC | -6% | -2% |
| O=P(O)(O)CN1CCNCCN(CP(=O)(O)O)CCNCC1 | -17% | -26% |
| CSc1nc(NC(C)C)nc(NC(C)C)n1 | -20%&-7% | -2%&0% |
| c1ccc(CNc2nc(-c3cccnc3)cs2)cc1 | -7% | -12% |
| CCCCN(C(C)=O)c1ccc2c(c1)C1CC2CCN1C(=O)OCc1ccccc1 (stereo not given) | ? | ? |
| Cc1ccc(S(=O)(=O)Nc2cc3c(cc2N2CCOCC2)n(C)c(=O)c(=O)n3C)cc1 | 16%[7.34 µM] | -6%[7.34 µM] |
| C=CCn1cc(C(=O)c2cc(Br)ccc2O)cc(C#N)c1=O | -4% | ? |
| C[C@H]1CN([C@@H](C)CO)C(=O)Cc2cc(NS(C)(=O)=O)ccc2O[C@@H]1CN(C)Cc1ccc(Cl)c(Cl)c1 | -28% | -12% |

Ordered by count of non-hydrogen atoms (low to high): part of the list above.
| structure | Vaccinia Venus | VACV mCherry inh |
| --- | --- | --- |
| c1ccc(CNc2nc(-c3cccnc3)cs2)cc1 | -7% | -12% |
| Cc1ccc(S(=O)(=O)Nc2cc3c(cc2N2CCOCC2)n(C)c(=O)c(=O)n3C)cc1 | 16%[7.34 µM] | -6%[7.34 µM] |
| C[C@H]1CN([C@@H](C)CO)C(=O)Cc2cc(NS(C)(=O)=O)ccc2O[C@@H]1CN(C)Cc1ccc(Cl)c(Cl)c1 | -28% | -12% |

Assay outcomes deposited in PubChem BioAssay by National Center for Advancing Translational Sciences (NCATS).
